Assay outcomes (PubChem BioAssay)
HCMV UL50-53 inh – inhibitors of HCMV UL50-UL53 interaction, biochemical, HTRF. AID 1918969, 2023. inhibition, % (concentration not given with the values). HCMV UL50-UL53 nuclear egress complex (human cytomegalovirus). 190,000 tested, 0.15% active. normalized percent inhibition;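 active = both replicates at 50% or more, plus weaker picks with an unusually low signal ratio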;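 also: stock transfer was 100 nL into about 20 µL; 0% = negative control wells and 100% = wells with untagged competitor protein; inactives centre near -12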
GIV Gai3 FP – inhibitors of GIV peptide binding to Galpha-i3, primary screen, biochemical, fluorescence polarization, FITC-GIV GBA peptide, rat Galphai3. Guanine nucleotide-binding protein G(i) subunit alpha-3 (Rattus norvegicus), P08753. AID 1224905, 2016. 210,000 tested, 0.42% active. 90 min; hits give low values; scaled: aluminum fluoride 0%, vehicle 100%. percent of control (FP), % (test concentration not listed);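 active = replicate mean at 85% of control or lower, very high polarization wells dropped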;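 also: wells of about 15 µL received 100 nL stock; the first replicate is given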
Target sequence (P08753 whole entry, looked up): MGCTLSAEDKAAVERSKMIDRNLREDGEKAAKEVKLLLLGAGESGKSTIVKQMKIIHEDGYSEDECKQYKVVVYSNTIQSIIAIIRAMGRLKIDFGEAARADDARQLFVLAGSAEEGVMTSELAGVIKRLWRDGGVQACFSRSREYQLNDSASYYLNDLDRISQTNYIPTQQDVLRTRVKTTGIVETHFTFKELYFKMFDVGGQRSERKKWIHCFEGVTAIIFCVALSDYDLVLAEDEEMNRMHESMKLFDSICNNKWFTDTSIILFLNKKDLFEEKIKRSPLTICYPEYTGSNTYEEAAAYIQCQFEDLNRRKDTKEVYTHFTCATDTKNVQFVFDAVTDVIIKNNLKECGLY
Sa growth 42C – S. aureus growth inhibition at 42 and 30 °C, primary screen, LtaS inhibitor project, RN4220, two temperatures | OD600, 20 h, 42 °C; hits give low values | 170,000 tested, 0.53% active | AID 720641, 2013 | relative growth, % (test concentration not listed);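 active = growth at 42 °C up to 50% and 20 or more points under that at 30 °C, or under 10% at both; inconclusive = no clear call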;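 also: 300 nL library stock went into each well; scaled to the means of positive and negative controls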
Sa growth 42C second temp – also measured in Sa growth 42C; calls as there; relative growth, %; measured here: growth at 30 °C;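 optical density after 20 h as mean of two plates; 100% = untreated growth and lower means inhibition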
An asterisk follows results filed as active. Not a hit list. Share with any hit: about 0.82%.

CCn1cc(CCCC(=O)NCCN2CCN(C)CC2)c2ccccc21 was read as GIV Gai3 FP 96, Sa growth 42C 102 and Sa growth 42C second temp 86.
`OC(COc1ccccc1)CN1CCCCC1` (configuration not stated) gave HCMV UL50-53 inh -13, Sa growth 42C 95 and Sa growth 42C second temp 87.
`CN1CCN(C(=O)C(=O)Nc2c3c(nn2-c2ccc(F)cc2)CSC3)CC1` gave GIV Gai3 FP 106, Sa growth 42C 109 and Sa growth 42C second temp 92.
Screening CCN(CC)CCCNC(=O)C(=O)Nc1ccc2nc3n(c(=O)c2c1)CCCCC3 returned HCMV UL50-53 inh -9, GIV Gai3 FP 106, Sa growth 42C 109 and Sa growth 42C second temp 92.
COc1cc(OC)cc(C(=O)NC(=NCc2ccncc2)Nc2ccccc2)c1 was read as HCMV UL50-53 inh -5 and GIV Gai3 FP 110.
`O=C(c1cc(-c2ccc3c(c2)OCO3)on1)N1CCCC1c1ccccc1F` (configuration not stated) gave HCMV UL50-53 inh -23 and GIV Gai3 FP 104.
COc1ccc(CCNC(=O)c2ccc3c(c2)N(Cc2ccc(Cl)cc2)C(=O)c2ccccc2S3)cc1OC was read as GIV Gai3 FP 102, Sa growth 42C 101 and Sa growth 42C second temp 98.
Screening COc1cc(OC)cc(C(=O)Nc2nc(CC(=O)Nc3ccc4c(c3)OCCO4)cs2)c1 returned HCMV UL50-53 inh -13 and GIV Gai3 FP 103.
`CC12CCC(CC1=NNC(=O)Nc1ccccc1)C2(C)C` (configuration not stated) gave HCMV UL50-53 inh -23, Sa growth 42C 87 and Sa growth 42C second temp 86.
Screening c1ccc2nc(-c3nc4ccccc4o3)ccc2c1 returned HCMV UL50-53 inh -32, GIV Gai3 FP 109, Sa growth 42C 91 and Sa growth 42C second temp 76.
`Cc1c(C)c2c(c(C)c1OCc1ccccc1)C(CO)C(C)(C)O2` (configuration not stated) gave GIV Gai3 FP 98, Sa growth 42C 96 and Sa growth 42C second temp 41.
Screening CCOC(=O)c1ccccc1NC1(c2ccc(OC)cc2)C(=O)c2ccccc2C1=O returned GIV Gai3 FP 103, Sa growth 42C 147 and Sa growth 42C second temp 86.
For COc1ccc(C(=O)OCc2c(C)noc2C)cc1S(=O)(=O)N1CCCc2ccccc21 the results were HCMV UL50-53 inh -14, Sa growth 42C 106 and Sa growth 42C second temp 95.
For CC1=C(C(=O)NCCN2CCN(c3cccc(C)c3C)CC2)C2(CCCCC2)OC1=O the results were HCMV UL50-53 inh -23 and GIV Gai3 FP 99.
For O=c1[nH]c(-c2ccc(Cl)cc2)nc2sc3c(c12)CCCC3 the results were HCMV UL50-53 inh 9, Sa growth 42C 114 and Sa growth 42C second temp 85.
For Cn1c(=O)c2c(nc(NCC3CCCO3)n2Cc2cccc3ccccc23)n(C)c1=O (configuration not stated) the results were HCMV UL50-53 inh -19, GIV Gai3 FP 105, Sa growth 42C 96 and Sa growth 42C second temp 87.
For O=C(Nc1nc2ccc(Cl)cc2s1)c1ccc(C(=O)c2ccccc2)cc1 the results were HCMV UL50-53 inh -11, Sa growth 42C 108 and Sa growth 42C second temp 97.
`O=C(CSc1ncnc2sc(-c3ccccc3)cc12)Nc1ccc2c(c1)OCO2` gave HCMV UL50-53 inh -21 and GIV Gai3 FP 105.
`Cc1cccc2cc(/C=C3\NC(=S)NC3=O)c(N3CCOCC3)nc12` gave HCMV UL50-53 inh -30, GIV Gai3 FP 103, Sa growth 42C 112 and Sa growth 42C second temp 86.
For CCO/C(C)=N\Oc1nc2nonc2nc1O/N=C(/C)OCC the results were HCMV UL50-53 inh -9, GIV Gai3 FP 105, Sa growth 42C 74 and Sa growth 42C second temp 89.
For CC(Oc1ccccc1)C(=O)Nc1ccccc1 (configuration not stated) the results were HCMV UL50-53 inh -20, GIV Gai3 FP 98, Sa growth 42C 107 and Sa growth 42C second temp 104.
For O=C(CSc1nc2ccccc2o1)N1CCN(S(=O)(=O)c2ccccc2)CC1 the results were HCMV UL50-53 inh 2, Sa growth 42C 82 and Sa growth 42C second temp 83.
For Cc1nnc(N(C)C(=O)Cc2ccc3c(c2)OCO3)s1 the results were HCMV UL50-53 inh -8, GIV Gai3 FP 98, Sa growth 42C 100 and Sa growth 42C second temp 81.
`Cc1ccc(C(=O)NC2CCCC2)cc1-n1c(C)nc2cccnc21` gave HCMV UL50-53 inh 8 and GIV Gai3 FP 105.
`CCCC(CCC)C(=O)Nc1cccc(-c2nc3cccnc3s2)c1C` gave HCMV UL50-53 inh 2, GIV Gai3 FP 105, Sa growth 42C 84 and Sa growth 42C second temp 87.
`Cc1cc(C)cc(NC(=O)CSc2nnc(-c3cc4occc4n3C)n2-c2ccccc2C)c1` gave GIV Gai3 FP 107, Sa growth 42C 123 and Sa growth 42C second temp 100.
For CCCNC(=O)c1cnc(N2CCOCC2)nc1 the results were HCMV UL50-53 inh -22 and GIV Gai3 FP 102.
`O=C(O)CCOc1ccc(Cl)cc1` gave HCMV UL50-53 inh -7, GIV Gai3 FP 100, Sa growth 42C 112 and Sa growth 42C second temp 93.
Screening COc1ccc(N2CCN(C(=O)C(CC(C)C)NS(=O)(=O)c3ccc4c(c3)oc(=O)n4C)CC2)cc1 (configuration not stated) returned HCMV UL50-53 inh 1, GIV Gai3 FP 109, Sa growth 42C 105 and Sa growth 42C second temp 91.
Screening N#C/C(=C\c1c(Oc2ccc(Br)cc2)nc2ccccn2c1=O)c1nc2ccccc2s1 returned HCMV UL50-53 inh -44, GIV Gai3 FP 124 and Sa growth 42C inconclusive.
`c1ccc(-c2[nH]ncc2CN2CCN(c3ccccn3)CC2)cc1` gave HCMV UL50-53 inh -7, GIV Gai3 FP 106, Sa growth 42C 90 and Sa growth 42C second temp 89.
`O=C(Nc1cc(O)cc([N+](=O)[O-])c1)c1nn2c(C(F)(F)F)cc(-c3cccs3)nc2c1Cl` gave HCMV UL50-53 inh -23 and GIV Gai3 FP 98.
For Cn1c(-c2oc3nc(-c4ccccc4)cc(-c4ccco4)c3c2N)n[nH]c1=S the results were HCMV UL50-53 inh -26, GIV Gai3 FP 172, Sa growth 42C 96 and Sa growth 42C second temp 44.
Screening CCOC(=O)c1cnn(CCOC(=O)COC)c1NC(=O)COC returned HCMV UL50-53 inh 17 and GIV Gai3 FP 104.
CCn1cnc(S(=O)(=O)N2CCCC(C(=O)N3CCOCC3)C2)c1 (configuration not stated) was read as HCMV UL50-53 inh -8 and GIV Gai3 FP 101.
`CCOc1ccccc1CNc1ncnc2onc(-c3ccc(F)cc3)c12` gave GIV Gai3 FP 102, Sa growth 42C 87 and Sa growth 42C second temp 96.
Screening Cc1nn(-c2ccccc2)c(Cl)c1C(=O)OCC(N)=O returned HCMV UL50-53 inh -5, Sa growth 42C 108 and Sa growth 42C second temp 84.
For Cc1ccc(NC(=O)CN2C(=O)COc3ccc(S(=O)(=O)N4CCCCC4)cc32)cc1N(C)C the results were GIV Gai3 FP 107, Sa growth 42C 122 and Sa growth 42C second temp 85.
O=C(NCc1cccc(Br)c1)C1CCN(C(=O)c2sccc2-n2cccc2)CC1 was read as HCMV UL50-53 inh -4, GIV Gai3 FP 105, Sa growth 42C 107 and Sa growth 42C second temp 94.
Screening CN(c1ccccc1)S(=O)(=O)c1cc(C(=O)NCCCN2CCOCC2)ccc1Cl returned HCMV UL50-53 inh -7, Sa growth 42C 98 and Sa growth 42C second temp 89.

Sorted by heavy-atom count (high to low): some entries from above
O=C(NCc1cccc(Br)c1)C1CCN(C(=O)c2sccc2-n2cccc2)CC1 was read as HCMV UL50-53 inh -4, GIV Gai3 FP 105, Sa growth 42C 107 and Sa growth 42C second temp 94.
`CCCC(CCC)C(=O)Nc1cccc(-c2nc3cccnc3s2)c1C` gave HCMV UL50-53 inh 2, GIV Gai3 FP 105, Sa growth 42C 84 and Sa growth 42C second temp 87.
`c1ccc(-c2[nH]ncc2CN2CCN(c3ccccn3)CC2)cc1` gave HCMV UL50-53 inh -7, GIV Gai3 FP 106, Sa growth 42C 90 and Sa growth 42C second temp 89.
Screening Cc1nn(-c2ccccc2)c(Cl)c1C(=O)OCC(N)=O returned HCMV UL50-53 inh -5, Sa growth 42C 108 and Sa growth 42C second temp 84.

(cont.)
CC1CCC(OC(=O)CCC(=O)Nc2ccc(Br)cc2)CC1 (configuration not stated) was read as HCMV UL50-53 inh -6, Sa growth 42C 82 and Sa growth 42C second temp 88.
Screening Cc1cc(C(=O)COc2cccc3c2OC(C)(C)C3)c(C)n1C1CC1 returned HCMV UL50-53 inh 7, Sa growth 42C 85 and Sa growth 42C second temp 87.
`O=S(=O)(NC1c2ccccc2Oc2ccccc21)c1ccc2ccccc2c1` gave HCMV UL50-53 inh -4, Sa growth 42C 85 and Sa growth 42C second temp 91.
For CC(C)N(C(=O)c1cnc2n(c1=O)CCS2)C(C)C the results were HCMV UL50-53 inh -21, GIV Gai3 FP 100, Sa growth 42C 90 and Sa growth 42C second temp 78.
`Cn1ccc2cc(S(=O)(=O)N3CCN(C(=O)Nc4cccc(Br)c4)CC3)ccc21` gave HCMV UL50-53 inh -15 and GIV Gai3 FP 100.
`CCOc1ccc(N(CC(=O)NC2CCCC2)S(=O)(=O)c2c(C)noc2C)cc1` gave HCMV UL50-53 inh 0, GIV Gai3 FP 103, Sa growth 42C 84 and Sa growth 42C second temp 84.
`Cc1ccc(Cn2ccc(NC(=O)C3=CC(c4ccc(C)cc4)=NS(=O)(=O)N3C)n2)cc1` gave HCMV UL50-53 inh -25 and GIV Gai3 FP 100.
O=C(c1ccc(C(F)(F)F)cc1)n1ccc(-c2cccs2)n1 was read as HCMV UL50-53 inh -4, GIV Gai3 FP 101, Sa growth 42C 101 and Sa growth 42C second temp 95.
Cc1nc2ccccn2c1C(=O)OCC#N was read as HCMV UL50-53 inh 0, GIV Gai3 FP 100, Sa growth 42C 97 and Sa growth 42C second temp 90.
Screening O=C(CN(C(=O)c1ccc(Cl)nc1)c1ccccc1)NCC1CCCO1 (configuration not stated) returned HCMV UL50-53 inh -10, GIV Gai3 FP 104, Sa growth 42C 110 and Sa growth 42C second temp 99.
`COc1ccc(COCC(O)CN2CCN(c3ccc(C(F)(F)F)cn3)CC2)cc1` (configuration not stated) gave HCMV UL50-53 inh 1, GIV Gai3 FP 99, Sa growth 42C 101 and Sa growth 42C second temp 92.
Cc1cccc(C)c1N1C(=O)CSC1=O was read as HCMV UL50-53 inh -20 and GIV Gai3 FP 97.
Screening COc1ccc2c(c1)CCc1c(C(=O)Nc3cnn(Cc4ccc(F)cc4)c3)noc1-2 returned HCMV UL50-53 inh -35, GIV Gai3 FP 99, Sa growth 42C 82 and Sa growth 42C second temp 88.
Screening O=C(NC1CCCc2ccccc21)c1ccc2c(c1)sc1nc(-c3ccccc3)cn12 (configuration not stated) returned GIV Gai3 FP 102, Sa growth 42C 107 and Sa growth 42C second temp 77.
For COc1ccc(-c2noc(-c3ccccc3)n2)cc1 the results were HCMV UL50-53 inh -31, GIV Gai3 FP 102, Sa growth 42C 104 and Sa growth 42C second temp 97.
For CC(C)N(C(=O)Cn1c(-c2ccco2)nc2ccccc21)c1ccccc1 the results were HCMV UL50-53 inh 4, Sa growth 42C 91 and Sa growth 42C second temp 95.
Screening COc1cc(C2C(C(=O)Nc3ccccc3)=C(C)Nc3nnnn32)ccc1OCc1ccccc1 (configuration not stated) returned HCMV UL50-53 inh -3 and GIV Gai3 FP 104.
Screening Cc1nc2ccc(NS(=O)(=O)c3ccc(F)c(Cl)c3)cc2o1 returned HCMV UL50-53 inh -14, GIV Gai3 FP 104, Sa growth 42C 94 and Sa growth 42C second temp 94.
O=C(OCc1nc2ccccc2s1)c1ccc(S(=O)(=O)N2CCCC2)cc1 was read as HCMV UL50-53 inh -23, Sa growth 42C 95 and Sa growth 42C second temp 94.
For COC(=O)c1cc(Cl)c(NC(=O)C(C)C)cc1OC the results were HCMV UL50-53 inh -8, GIV Gai3 FP 106, Sa growth 42C 72 and Sa growth 42C second temp 81.
O=C(C1CC1)N1c2ccccc2Sc2ccccc21 was read as HCMV UL50-53 inh -27, GIV Gai3 FP 105, Sa growth 42C 108 and Sa growth 42C second temp 84.
COC(=O)c1ccccc1NC(=O)COC(=O)c1ccn(C)n1 was read as HCMV UL50-53 inh -16, GIV Gai3 FP 94, Sa growth 42C 100 and Sa growth 42C second temp 81.
For Cc1ccsc1/C=C1\Sc2ccccc2C1=O the results were HCMV UL50-53 inh -40 and GIV Gai3 FP 114.
Screening COc1cc(C2CC(=O)Nc3c2c(C)nn3-c2nncc(-c3ccc(C)cc3)n2)cc(OC)c1OC (configuration not stated) returned HCMV UL50-53 inh -13, GIV Gai3 FP 102, Sa growth 42C 106 and Sa growth 42C second temp 91.
Screening C[n+]1cc(-c2ccc3ccccc3n2)cc2ccccc21 returned GIV Gai3 FP 105, Sa growth 42C 111 and Sa growth 42C second temp 87.
`NC(=O)c1cc[n+](CC(=O)N2CCCCCC2)cc1` gave HCMV UL50-53 inh -74, GIV Gai3 FP 100, Sa growth 42C 89 and Sa growth 42C second temp 80.
Screening COc1ccc(CCNC(=O)Cc2csc(NC(=O)c3cc(OC)cc(OC)c3)n2)cc1 returned HCMV UL50-53 inh -25 and GIV Gai3 FP 105.
For Cc1ccc(Nc2nc(Cl)nc(N(C)C#N)n2)cc1 the results were HCMV UL50-53 inh -8, GIV Gai3 FP 103, Sa growth 42C 121 and Sa growth 42C second temp 66.
